Yeast UUG start – modulators of yeast start codon fidelity, primary screen, whole organism, S. cerevisiae, single point, plate reader | hit rate 0.13% among 350,000 | activity score, % at 18.7 µM | AID 602363, 2012 | S. cerevisiae UUG-firefly luciferase reporter, luminescence/redox ratio;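 active = replicate mean at a twofold rise or more, about +100% in these data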;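 note: firefly luciferase made from a UUG start codon reports start codon fidelity; reporter light over untreated wells divided by growth signal over untreated wells; some hits fall short of that in this replicate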
Env fusion inh – inhibitors of HIV-1 Env-driven cell-cell fusion, primary screen, HeLa-JRFL effector, CEM21 target cells, luciferase. inhibition, % at 12.3 µM. hit rate 1.1% among 360,000. AID 651610, 2012;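 active = mean replicate inhibition score of at least 50 and every replicate individually at or above 50; inconclusive = only one of the two criteria met; inactive = mean below 50 and not all replicates reaching 50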;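 note: 0% = plate neutral controls and 100% = maraviroc near 300 nM; one replicate is shown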
* = called active by the depositor; ? = inconclusive; [ ] = another dose, or the depositor's remark.

SMILES | Yeast UUG start | Env fusion inh
N#C[C@H]1[C@H](c2ccc(C#CC3CCCC3)cc2)[C@H](CO)N1C(=O)Nc1ccc(F)cc1 | -14 | 30[16.7 µM]
O=C(N[C@@H]1CC[C@H](CCNC(=O)C2CCC2)O[C@@H]1CO)c1ccncc1 | 19 | -22[16.7 µM]
C[C@@H]1CN([C@H](C)CO)C(=O)c2cc(C#CC3CCCCC3)cnc2O[C@@H]1CN(C)C(=O)Nc1ccccc1 | 9 | 6[16.7 µM]
Cc1noc(C)c1S(=O)(=O)Nc1ccc2c(c1)C(=O)N([C@H](C)CO)C[C@H](C)[C@H](CN(C)Cc1ccc(C(=O)O)cc1)OCCCC[C@H](C)O2 | -1 | -5[16.7 µM]
C[C@@H]1CN([C@H](C)CO)S(=O)(=O)c2ccc(C3=CCCC3)cc2O[C@@H]1CN(C)C(=O)C1CCOCC1 | 18 | -20[16.7 µM]
CCCNC(=O)C[C@@H]1C[C@H]2c3cc(NS(=O)(=O)c4ccc(F)cc4)ccc3O[C@H]2[C@H](CO)O1 | 11 | -4[16.7 µM]
C[C@@H]1CN([C@@H](C)CO)C(=O)c2cc(NS(=O)(=O)c3ccc(Cl)cc3)ccc2O[C@H]1CN(C)Cc1ccccc1 | -4 | -17[16.7 µM]
C/C=C/c1ccc2c(c1)O[C@@H](CN(C)C(=O)CN(C)C)[C@H](C)CN([C@@H](C)CO)S2(=O)=O | -6 | -9[16.7 µM]
Cc1noc(C)c1NC(=O)N(C)C[C@H]1Oc2ccc(NS(=O)(=O)c3ccc(Cl)cc3)cc2CC(=O)N([C@H](C)CO)C[C@@H]1C | 16 | -5[16.7 µM]
C[C@H]1CN([C@@H](C)CO)C(=O)c2cc(-c3cccnc3)cnc2O[C@@H]1CN(C)Cc1ccc(Oc2ccccc2)cc1 | -14 | 19[16.7 µM]
C[C@@H]1CN([C@H](C)CO)C(=O)c2cccc(NC(=O)C3CC3)c2O[C@@H]1CN(C)C(=O)Nc1cccc2ccccc12 | -1 | -67[16.7 µM]
Cc1ccc(S(=O)(=O)Nc2ccc3c(c2)CC(=O)N([C@@H](C)CO)C[C@H](C)[C@@H](CN(C)S(=O)(=O)c2cn(C)cn2)O3)cc1 | 0 | 7[16.7 µM]
CCCC#Cc1ccc2c(c1)O[C@@H](CN(C)C(=O)C1CCCCC1)[C@H](C)CN([C@H](C)CO)S2(=O)=O | -9 | 62*[16.7 µM]
O=C(C[C@H]1C[C@H]2c3cc(NC(=O)Nc4ccc(F)cc4)ccc3O[C@H]2[C@H](CO)O1)NC1CCCC1 | -1 | 1[16.7 µM]
COCC(=O)N(C)C[C@H]1Oc2ncc(-c3ccc(C)cc3)cc2C(=O)N([C@@H](C)CO)C[C@@H]1C | 2 | -1[16.7 µM]
COc1ccc(NC(=O)Nc2ccc3c(c2)C(=O)N([C@H](C)CO)C[C@H](C)[C@@H](CN(C)S(=O)(=O)c2ccccc2)OCCCC[C@@H](C)O3)cc1 | 3 | -5[16.7 µM]
C[C@@H]1CN([C@@H](C)CO)S(=O)(=O)c2ccc(C3=CCCC3)cc2O[C@H]1CN(C)S(=O)(=O)c1ccc(F)cc1 | -18 | 33[16.7 µM]
COc1ccc(NC(=O)N(C)C[C@H]2Oc3ncc(C#CCN(C)C)cc3C(=O)N([C@@H](C)CO)C[C@H]2C)cc1 | 6 | -3[16.7 µM]
CO[C@H]1CN(C)C(=O)c2cc(NC(=O)Cc3ccccc3)ccc2OC[C@H](C)N(C)C[C@H]1C | 0 | 1[16.7 µM]
CN(C)CC(=O)Nc1ccc2c(c1)[C@@H]1C[C@@H](CC(=O)NCC3CC3)O[C@@H](CO)[C@@H]1O2 | 12 | -14[16.7 µM]
COCC(=O)Nc1ccc2c(c1)[C@H]1C[C@@H](CC(=O)NCCN3CCCCC3)O[C@@H](CO)[C@H]1O2 | -6 | 17[16.7 µM]
CC(C)CC#Cc1cnc2c(c1)C(=O)N([C@H](C)CO)C[C@H](C)[C@H](CN(C)C(=O)CC1CC1)O2 | -6 | 13[16.7 µM]
O=C(C[C@@H]1C=C[C@@H](NC(=O)c2ccccc2)[C@@H](CO)O1)NCCc1ccncc1 | -10 | -11[16.7 µM]
Cc1noc(C)c1NC(=O)N(C)C[C@H]1OCCCC[C@@H](C)Oc2ccc(NS(=O)(=O)c3c(C)noc3C)cc2C(=O)N([C@@H](C)CO)C[C@H]1C | -2 | 14[16.7 µM]
C[C@@H]1CN([C@@H](C)CO)C(=O)c2cccc(NC(=O)c3nc4ccccc4s3)c2O[C@@H]1CN(C)S(=O)(=O)c1ccc(F)cc1 | -2 | 0[16.7 µM]
COc1ccc(NC(=O)Nc2ccc3c(c2)C(=O)N([C@@H](C)CO)C[C@@H](C)[C@@H](CN(C)S(=O)(=O)c2ccc(OC)cc2)O3)cc1 | -2 | -5[16.7 µM]
C[C@@H]1CN([C@@H](C)CO)C(=O)c2cc(NC(=O)Nc3ccc4c(c3)OCO4)ccc2O[C@H]1CN(C)Cc1ccccc1 | -9 | -1[16.7 µM]
C[C@@H]1CCCCO[C@@H](CN(C)C(=O)Nc2cccc3ccccc23)[C@H](C)CN([C@@H](C)CO)C(=O)c2cc(N(C)C)ccc2O1 | 14 | -14[16.7 µM]
COc1ccc(NC(=O)Nc2ccc3c(c2)C(=O)N([C@@H](C)CO)C[C@H](C)[C@@H](CN(C)C)OCCCC[C@H](C)O3)cc1 | 6 | -4[16.7 µM]
C[C@@H]1CN([C@@H](C)CO)C(=O)Cc2cc(NC(=O)c3ccncc3)ccc2O[C@@H]1CN(C)C(=O)Nc1ccc2c(c1)OCO2 | -4 | -45[16.7 µM]
C[C@@H]1CN([C@H](C)CO)C(=O)c2cc(NS(=O)(=O)c3ccccc3)ccc2O[C@@H](C)CCCCO[C@@H]1CN(C)S(=O)(=O)c1ccc(F)cc1 | 1 | -36[16.7 µM]
CNC(=O)C[C@H]1CC[C@@H]2[C@@H](COc3ccc(NC(=O)C4CC4)cc3C(=O)N2C)O1 | 1 | -12[16.7 µM]
C[C@@H]1CN([C@@H](C)CO)C(=O)c2cc(C3=CCCCC3)cnc2O[C@H]1CN(C)Cc1cccc(F)c1 | 13 | -3[16.7 µM]
C[C@@H]1CN([C@@H](C)CO)C(=O)c2cc(NC(=O)Nc3ccc(C(F)(F)F)cc3)ccc2O[C@H]1CN(C)S(=O)(=O)c1cccs1 | -8 | ?
COCC(=O)N(C)C[C@H]1Oc2cc(-c3cncnc3)ccc2S(=O)(=O)N([C@@H](C)CO)C[C@@H]1C | -1 | 7[16.7 µM]
Cc1noc(C)c1S(=O)(=O)Nc1ccc2c(c1)C(=O)N([C@@H](C)CO)C[C@@H](C)[C@H](CN(C)Cc1ccccc1)OCCCC[C@H](C)O2 | 3 | -11[16.7 µM]
C[C@@H]1CCCCO[C@@H](CN(C)C(=O)Nc2cccc3ccccc23)[C@@H](C)CN([C@H](C)CO)C(=O)c2cc(NC(=O)Cc3ccccc3)ccc2O1 | -2 | -87[16.7 µM]
Cc1ccc(S(=O)(=O)N(C)C[C@@H]2OCCCC[C@H](C)Oc3ccc(NS(=O)(=O)c4cccs4)cc3C(=O)N([C@@H](C)CO)C[C@H]2C)cc1 | 4 | -52[16.7 µM]
C[C@@H]1CN([C@@H](C)CO)C(=O)Cc2cc(NC(=O)Nc3ccc4c(c3)OCO4)ccc2O[C@H]1CN(C)Cc1ccc(C(=O)Nc2ccccc2N)cc1 | -11 | 4[16.7 µM]
Cc1noc(C)c1S(=O)(=O)N(C)C[C@@H]1Oc2ccc(NC(=O)NC(C)C)cc2CC(=O)N([C@H](C)CO)C[C@H]1C | 15 | -7[16.7 µM]

5 entries drawn at random from the list so far:
SMILES | Yeast UUG start | Env fusion inh
CNC(=O)C[C@H]1CC[C@@H]2[C@@H](COc3ccc(NC(=O)C4CC4)cc3C(=O)N2C)O1 | 1 | -12[16.7 µM]
C[C@@H]1CCCCO[C@@H](CN(C)C(=O)Nc2cccc3ccccc23)[C@@H](C)CN([C@H](C)CO)C(=O)c2cc(NC(=O)Cc3ccccc3)ccc2O1 | -2 | -87[16.7 µM]
COCC(=O)N(C)C[C@H]1Oc2cc(-c3cncnc3)ccc2S(=O)(=O)N([C@@H](C)CO)C[C@@H]1C | -1 | 7[16.7 µM]
C[C@@H]1CN([C@@H](C)CO)C(=O)Cc2cc(NC(=O)Nc3ccc4c(c3)OCO4)ccc2O[C@H]1CN(C)Cc1ccc(C(=O)Nc2ccccc2N)cc1 | -11 | 4[16.7 µM]
C[C@@H]1CN([C@H](C)CO)C(=O)c2cc(NS(=O)(=O)c3ccccc3)ccc2O[C@@H](C)CCCCO[C@@H]1CN(C)S(=O)(=O)c1ccc(F)cc1 | 1 | -36[16.7 µM]

(continued)
SMILES | Yeast UUG start | Env fusion inh
C[C@@H]1CN([C@H](C)CO)C(=O)c2cc(-c3cccnc3)cnc2O[C@@H]1CN(C)C(=O)Nc1ccc(C(F)(F)F)cc1 | 1 | 2[16.7 µM]
CCCC#Cc1ccc2c(c1)O[C@@H](CN(C)C(C)=O)[C@@H](C)CN([C@@H](C)CO)S2(=O)=O | 6 | -23[16.7 µM]
COc1ccc(NC(=O)Nc2ccc3c(c2)CC(=O)N([C@H](C)CO)C[C@@H](C)[C@H](CN(C)C(=O)NC2CCCCC2)O3)cc1 | -3 | 3[16.7 µM]
C[C@H]1CN([C@@H](C)CO)C(=O)c2cc(-c3ccccc3F)cnc2O[C@@H]1CN(C)C | -8 | -45[16.7 µM]
C[C@@H]1CN([C@@H](C)CO)S(=O)(=O)c2ccc(C#CC3(O)CCCC3)cc2O[C@H]1CN(C)C(=O)Cc1ccncc1 | -1 | 5[16.7 µM]
CC(C)[Si](OCCCNS(=O)(=O)c1ccc(Br)cc1)(C(C)C)C(C)C | -9 | 6[16.7 µM]
C[C@H](CO)N1C[C@H](C)[C@H](CN(C)CC2CC2)Oc2c(NS(=O)(=O)c3ccc(F)cc3)cccc2C1=O | 4 | -2[16.7 µM]
COc1ccccc1-c1cn(CC[C@@H]2CC[C@H](NC(=O)c3ccccc3F)[C@@H](CO)O2)nn1 | 18 | -12[16.7 µM]
C[C@@H]1CN([C@H](C)CO)S(=O)(=O)c2ccc(C#Cc3ccc(F)cc3)cc2O[C@H]1CN(C)S(=O)(=O)c1cn(C)cn1 | 0 | 17[16.7 µM]
COc1ccc(NC(=O)Nc2ccc3c(c2)C(=O)N([C@H](C)CO)C[C@@H](C)[C@@H](CN(C)C(=O)Cc2ccccc2)OCCCC[C@H](C)O3)cc1 | 5 | 10[16.7 µM]
COc1ccc(NC(=O)Nc2ccc3c(c2)CC(=O)N([C@H](C)CO)C[C@@H](C)[C@@H](CN(C)C(=O)NC(C)C)O3)cc1 | 11 | -3[16.7 µM]
C[C@@H]1CCCCO[C@@H](CN(C)C(=O)CCC(F)(F)F)[C@@H](C)CN([C@H](C)CO)C(=O)c2cc(NS(=O)(=O)c3cn(C)cn3)ccc2O1 | -4 | 26[16.7 µM]
C[C@H]1CN([C@@H](C)CO)S(=O)(=O)c2ccc(C#CCN(C)C)cc2O[C@@H]1CN(C)C(=O)CN(C)C | 14 | -21[16.7 µM]
COc1ccc(NC(=O)Nc2ccc3c(c2)C(=O)N([C@@H](C)CO)C[C@H](C)[C@H](CN(C)S(=O)(=O)c2cccs2)OCCCC[C@@H](C)O3)cc1 | -13 | -9[16.7 µM]
C[C@@H]1CCCCO[C@H](CN(C)C(=O)Nc2cccc3ccccc23)[C@H](C)CN([C@H](C)CO)C(=O)c2cc(N(C)C)ccc2O1 | 10 | -13[16.7 µM]
CNC[C@H]1Oc2c(NC(=O)c3ccncc3)cccc2C(=O)N([C@H](C)CO)C[C@H]1C | -14 | -17[16.7 µM]
C[C@@H]1CN([C@@H](C)CO)C(=O)Cc2cc(NC(=O)Nc3cccc4ccccc34)ccc2O[C@H]1CN(C)CC1CC1 | 12 | 11[16.7 µM]
Cc1cc(C(=O)Nc2cccc3c2O[C@H](CN(C)Cc2ccc(C(F)(F)F)cc2)[C@@H](C)CN([C@@H](C)CO)C3=O)n(C)n1 | 3 | 43[16.7 µM]
CN1CCN(C(=O)C[C@H]2CC[C@@H]3[C@H](COC[C@H](O)CN3S(=O)(=O)c3cccc(F)c3)O2)CC1 | -25 | -18[16.7 µM]
COc1ccc(S(=O)(=O)N(C)C[C@H]2Oc3ccc(NC(=O)CCCCCC(=O)Nc4ccccc4N)cc3CC(=O)N([C@H](C)CO)C[C@H]2C)cc1 | 14 | 11[16.7 µM]

One compound at a time (already shown). Order of screens: Yeast UUG start	Env fusion inh
Cc1cc(C(=O)Nc2cccc3c2O[C@H](CN(C)Cc2ccc(C(F)(F)F)cc2)[C@@H](C)CN([C@@H](C)CO)C3=O)n(C)n1 as listed: 3	43[16.7 µM]
COc1ccc(S(=O)(=O)N(C)C[C@H]2Oc3ccc(NC(=O)CCCCCC(=O)Nc4ccccc4N)cc3CC(=O)N([C@H](C)CO)C[C@H]2C)cc1 as listed: 14	11[16.7 µM]

(list continues)
SMILES | Yeast UUG start | Env fusion inh
CCC(=O)N1C[C@H](C)[C@H](OC)CN(C)C(=O)c2cc(NC(=O)c3ccc(F)cc3)ccc2OC[C@H]1C | 0 | 3[16.7 µM]
C[C@H]1CN([C@@H](C)CO)C(=O)Cc2cc(NS(=O)(=O)c3cccs3)ccc2O[C@H]1CN(C)C(=O)Nc1ccc(C(F)(F)F)cc1 | -5 | 8[16.7 µM]
COc1ccc(S(=O)(=O)N(C)C[C@@H]2OCCCC[C@H](C)Oc3ccc(NC(=O)CCC(F)(F)F)cc3C(=O)N([C@H](C)CO)C[C@H]2C)cc1 | 38 | 1[16.7 µM]
COCC(=O)N(C)C[C@H]1Oc2ncc(/C=C/c3ccccc3)cc2C(=O)N([C@@H](C)CO)C[C@H]1C | -4 | 10[16.7 µM]
CCNC(=O)Nc1ccc2c(c1)C(=O)N(C)[C@@H]1CC[C@@H](CC(=O)NCC3CC3)O[C@H]1CO2 | 12 | -4[16.7 µM]

Assay outcomes as filed in PubChem.

This is a subset (hit frequency here may not be typical).
